Source: PubChem BioAssay
HIV Env fusion: inhibitors of HIV-1 Env-driven cell-cell fusion, primary screen, HeLa-JRFL effector, CEM21 target cells, luciferase | inhibition, % at 12.3 µM | 360,000 tested, 1.1% active | AID 651610, 2012;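 active = mean replicate inhibition score of at least 50 and every replicate individually at or above 50; inconclusive = only one of the two criteria met; inactive = mean below 50 and not all replicates reaching 50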;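 also: 0% = plate neutral controls and 100% = maraviroc near 300 nM; one replicate is shown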
Yeast UUG start: modulators of yeast start codon fidelity, primary screen, whole organism, S. cerevisiae, single point, plate reader; S. cerevisiae UUG-firefly luciferase reporter, luminescence/redox ratio; activity score, % at 18.7 µM; 350,000 tested, 0.13% active;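 active = replicate mean at a twofold rise or more, about +100% in these data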;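 also: firefly luciferase made from a UUG start codon reports start codon fidelity; reporter light over untreated wells divided by growth signal over untreated wells; some hits fall short of that in this replicate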
MT1-MMP act inh: blockers of MT1-MMP proenzyme processing, primary screen, HT1080 RFP-PRO-GFP cells, GFP/RFP fluorescence | AID 651647, 2012 | Matrix metalloproteinase-14 (Homo sapiens), P50281 | 360,000 tested, 0.061% active | GFP/RFP ratio change, % at 20 µM | GFP/RFP ratio fluorescence, overnight; percent of plate control window, DMSO zero;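 active = GFP/RFP ratio change of at least 30% with cell ATP level not reduced by more than half and red fluorescence within 50% of control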; also: strong numbers were not always called active
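system = RFP-PRO-GFP reporter HT1080 cells | dosing = 20 µM single dose, 1% DMSO | timing = overnight cell settling, then overnight compound exposure, 37 °C, 5% CO2 | read-out basis = GFP/RFP fluorescence ratio | controls = DMSO and RFP-L50D-GFP cell wells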
CSC inhib: cancer stem cell viability inhibitors, primary screen, luminescence; cancer stem cell-like cells viability; inhibition, % at 7.5 µM; 300,000 tested, 1.1% active; AID 2717, 2010;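 active = mean at 75% or more and at least half the replicates too; inconclusive = mean and replicates disagree; tested in HMLE shEcad cells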;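 also: 0% = median of negative and 100% = median of positive control wells; the first replicate is given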
PABP FP inh: PABP poly(A) RNA binding inhibitors, primary screen, biochemical, fluorescence polarization, uHTS; Polyadenylate-binding protein 1 (Homo sapiens), P11940; inhibition, % at 35 µM; AID 2014, 2009; 290,000 tested, 1% active;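 active = 50% or more with normal probe brightness, or confirmed in later tests; inconclusive = above 50% with abnormal brightness, or retests that disagree; inactive = below 50% or failed in later tests; about a fifth of its hits are not listed in these tables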;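 also: calls also rest on retests at 20 µM and on dose response follow-up; controls were probe without protein and protein plus probe with vehicle; some compounds called inactive have numbers as strong as hits; many hits fall short of the cut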
Rce1 inh: yeast Rce1p protease inhibitors, primary screen, biochemical, fluorescence, cell-free homogeneous; CAAX prenyl protease 2 (Saccharomyces cerevisiae (strain ATCC 204508 / S288c)), Q03530; yeast membranes, quenched prenylated peptide cleavage fluorescence; calls only; 290,000 tested, 0.27% active; AID 2563, 2010;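 active = fall in fluorescence gain of 50% or more versus controls, with final raw signal at or below 3038400; inconclusive = same 50% fall but final raw signal above 3038400; inactive = fall in fluorescence gain under 50%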;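 also: plate controls were neutral control wells for no effect and wells lacking membranes for full effect; tested at 10 µM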
Target sequence (Q03530 whole entry, looked up): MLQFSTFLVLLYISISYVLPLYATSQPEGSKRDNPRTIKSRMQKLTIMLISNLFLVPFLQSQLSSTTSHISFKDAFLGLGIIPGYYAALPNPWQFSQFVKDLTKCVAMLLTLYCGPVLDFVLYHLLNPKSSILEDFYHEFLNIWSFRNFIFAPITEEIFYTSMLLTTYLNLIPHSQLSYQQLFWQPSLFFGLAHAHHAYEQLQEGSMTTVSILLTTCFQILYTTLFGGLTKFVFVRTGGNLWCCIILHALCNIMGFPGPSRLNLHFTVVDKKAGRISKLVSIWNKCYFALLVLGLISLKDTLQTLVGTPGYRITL
eIF4H inh: human eIF4H binding inhibitors, primary screen, translation initiation inhibitor project, biochemical, uHTS, fluorescence polarization; AID 2012, 2009; 290,000 tested, 0.94% active; eIF4H fluorescence polarization binding assay; Eukaryotic translation initiation factor 4H (Homo sapiens), Q15056; inhibition, % at 35 µM;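 active = 50% or more with normal probe brightness, or confirmed in later tests; inconclusive = above 50% with abnormal brightness, or retests that disagree; inactive = below 50% or failed in later tests; about a fifth of its hits are not listed in these tables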;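 also: calls also rest on retests at 20 µM and on dose response follow-up; 0% = protein and probe with vehicle and 100% = probe without protein; strong numbers were not always called active; many hits fall short of the cut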
MT1-MMP act inh RFP: further read-out of MT1-MMP act inh, marked with its call; RFP signal change, %; measured here: RFP expression control read;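 0 = vehicle wells; hits needed this value within 50% of zero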
* = called active by the depositor; i = inactive; ? = inconclusive; / = no result given; & = joins results of further samples. Not all compounds are listed. The share of hits here may be higher or lower than overall.

compound,MT1-MMP act inh,MT1-MMP act inh RFP,eIF4H inh,Yeast UUG start,HIV Env fusion,PABP FP inh,Rce1 inh,CSC inhib
Cc1ccc(N(C(C)C(=O)Nc2c(C)n(C)n(-c3ccccc3)c2=O)S(C)(=O)=O)cc1C (stereo not drawn),4.5,5.1,-1.6,-1.9,1.1,-8.1,i,-5.3
CCC1(C)C(Nc2c(C)cccc2C)=NC(=S)N1c1ccc(NC(C)=O)cc1 (stereo not drawn),0.8,3.2,-3.1,/,-2.2,-10.8,i,11.8
O=C(Nc1ccc(Cl)cn1)c1ccccc1[N+](=O)[O-],6.5,0.3,-2.6,-14.4,-71.6,-8.7,i,-17.9
CCCCCCn1c(N2CCCC2)nc2c1c(=O)n(C)c(=O)n2C,1.3,-14.8,-0.3,-3.3,19.6,4.3,i,-15.4
CCn1c(CNC(=O)c2ccccc2Br)nnc1SCC(=O)Nc1nncs1,0.8,3.7,-1.3,-12.9,-7.5,12.5,i,/
CC(CCc1ccccc1)NC(=O)CCC(=O)N1CCC(C(=O)O)CC1 (stereo not drawn),-1.8,1.5,-5.9,-11.0,2.6,3.0,i,4.6
COc1cccc(-c2nnc(SCC(=O)OC(C)C)n2N)c1,-4.4,-0.1,5.7,-7.9,3.9,4.5,i,-10.5
Cc1ccc(SCc2ccc(C(=O)Nc3nccs3)o2)cc1,4.7,1.9,-4.8,-15.8,-12.1,2.1,i,14.2
N#Cc1ccc(C(=O)OCC(=O)Nc2cccc(S(=O)(=O)NC3=NCCC3)c2)cc1,2.3,0.0,/,7.4,0.1,/,/,-9.4
CCC(c1nnnn1CCOC)N1CCN(Cc2ccccc2)CC1 (stereo not drawn),/,/,-14.0,-15.4,/,7.8,i,-4.8
Cc1ccc(S(=O)(=O)N2CCCN(S(=O)(=O)c3ccc(C(F)(F)F)cc3)CC2)cc1,2.7,0.7,-5.1,-9.5,-125.4,-1.5,i,-4.4
COc1ccc(/C=N/NC(=O)c2cc(-c3ccccc3)nc3ccccc23)c(OC)c1,2.1,0.8,-1.3,/,11.3,20.2,i,7.6
CCCS(=O)(=O)NC(=O)C1(C)CCCN(C(=O)c2cccc3ccccc23)C1 (stereo not drawn),2.3,8.7,/,-19.7,2.6,/,/,/
O=C(O)c1cccc(Oc2ccc([N+](=O)[O-])cc2)c1,1.1,2.1,-4.9,-3.3,3.8,-4.0,/,-8.1
Cc1ccc(C(=O)CCC(=O)Nc2cccc(C(F)(F)F)c2)cc1C,3.2,3.6,/,-7.7,/,/,i,16.9
O=C(Nc1nnc(-c2ccccc2Cl)s1)c1ccccc1F,-1.5,1.3,-10.1,-1.1,-2.5,-6.6,i,0.3
COc1ccc(C[C@](C)(N)C(=O)O)cc1OC,4.7,4.9,/,-21.5,24.5,/,/,4.8
C=CCn1c(Cc2cccs2)nnc1SCC(=O)Nc1ccc(OC)c(OC)c1,-0.8,1.0,-2.4,-11.5,-38.2,-2.0,i,-2.8
Cc1ccc(CNC(=O)C2CCC(=O)N(Cc3cccc(F)c3)C2)s1 (stereo not drawn),2.8,3.2,/,-14.3,43.2,/,/,/
COc1cc2cc(Oc3ccc4ccc(=O)oc4c3)c(=O)oc2cc1OC(=O)C=C(C)C,/,/,12.3,/,/,16.5,i,-9.3
C=CCNc1c2c(nc3ncnn13)CC(C)CC2 (stereo not drawn),1.4,2.3,-2.5,-16.2,15.5,-6.1,/,-16.5
CC1CCN(S(=O)(=O)c2ccc3c(c2)oc(=O)n3C)CC1,-1.5,-2.2,8.8,-17.0,3.8,-4.0,i,-9.9
COC(=O)/C=C1\SC(=NC(=O)c2ccc(C)cc2)NC1=O,-1.4,-0.5,32.1,/,0.1,-5.8,i,-14.2
CCOC(=O)c1sc(=NC(=O)c2ccccc2Br)n(C)c1C,-1.3,1.5,-7.1,-14.1,-99.4,-1.9,i,-10.9
O=C(CCN1C(=O)/C(=C/c2ccccc2)SC1=S)N1CCCCCC1,-0.2,-3.3,-1.5,-10.2,-6.1,3.0,i,31.7
COCCN(C(=O)CSc1nc2ccc(OC)cc2[nH]1)c1c(N)n(Cc2ccccc2)c(=O)[nH]c1=O,2.8,1.5,/,/,4.8,/,i,1.2
COc1cccc(-c2ncc3ccccc3c2COC(=O)c2ccccc2C(=O)O)c1,-1.1,1.0,/,5.3,1.1,/,/,-27.8
COc1ccccc1OCCn1nnc2ccccc21,3.3,2.5,5.0,-10.8,-38.3,-4.4,i,-4.7
CC(C)Nc1nc(-c2ccccc2)nnc1-c1ccccc1,-1.7,-3.9,-11.9,/,8.5,1.9,i,23.0
CCN(CC)C(=O)COc1ccc(/C(C)=N/NC(=O)c2ccccc2-n2cccc2)cc1,4.5,4.8,-6.6,-6.4,5.2,4.8,i,-5.9
COc1ccc(N2CCN(C(=O)CSc3ccccc3)CC2)cc1,-1.9,-0.3,-10.6,-8.7,/,-5.3,i,-1.7
COc1nc(C)cc(C)c1S(=O)(=O)c1ccccc1C,-4.2,0.7,-3.3,/,6.6,-0.2,i,-11.6
COc1ccc(NS(=O)(=O)c2cccc(C(=O)OCC(=O)Nc3cc(C)on3)c2)cc1,3.6,2.5,-2.1,-8.2,-136.0,4.0,i,1.8
CC(C)C[C@H]1CN([C@@H](Cc2ccccc2)CN2CCC[C@@H]2CN2C(=O)C(=O)NC[C@@H]2Cc2ccccc2)C(=O)C(=O)N1CCc1ccccc1,1.0,-15.5,/,14.3,-190.2,/,/,/
CC1(C)OC(=O)C(=NNc2ccc(Cl)cc2)C(=O)O1,5.4,7.7,-13.8,-10.4,-4.2,1.4,i,17.0
COc1ccc(S(=O)(=O)N2CCN(c3nn(C)c(=O)n(C)c3=O)CC2)cc1,-7.3,-2.4,/,-10.8,23.6,/,/,10.4
CCn1c(Cc2ccccc2)nnc1SCC(=O)NC1CCCC1,-1.4,-0.9,-1.4,-21.7,-1.4,5.8,i,-14.0
CCc1nnc(NC(=O)CSc2nc3ccccc3s2)s1,0.9,5.0,1.8,-4.9,-9.6,-1.0,i,-0.4
CN(C(=O)c1cccc(NC(=O)Cc2ccc(NC(=O)C3CCN(C(=O)C4CCCCC4)CC3)cc2)c1)C1CCCCC1,-5.7,-4.5,/,3.3,5.2,/,/,/
Cc1ccc2[nH]c(=O)c(CN(CC3CCCO3)S(=O)(=O)c3cccc4nsnc34)cc2c1 (stereo not drawn),-1.2,4.0,9.2,/,4.7,-8.2,i,/
NS(=O)(=O)c1ccc(-c2ccc(/C=C3\SC(=S)N(C4CCS(=O)(=O)C4)C3=O)o2)cc1 (stereo not drawn),-141.0,-11.7,?,/,-5.4,?,i,36.5
CN(C)CCC(=O)N1c2ccccc2Sc2ccc(C(F)(F)F)cc21,2.7,-1.2,2.5,1.7,15.7,-10.5,i,10.6
CCOC(=O)CSc1nnc(Cc2ccc(OC)cc2)n1-c1ccccc1,-2.9,-3.9,-1.8,/,-87.3,10.4,i,-4.2
COc1ccc(OC)c(NC(=O)CSc2nc(N)c(-c3ccccc3)c(=O)[nH]2)c1,2.8,5.2,-2.6,-8.7,/,1.4,i,-3.9
COc1ccc(N2CCN(CC(O)COc3c(OC)cccc3OC)CC2)cc1 (stereo not drawn),1.6,1.5,4.8,-5.0,-7.2,-0.1,i,-4.1
Cc1cccc([C@@H]2[C@@H]3C(=O)N(Cc4ccccc4)C(=O)[C@@H]3[C@]3(CC(C)C)C(=O)N(c4cccc(Cl)c4)C(=O)N23)c1,-6.8,-11.1,-13.8,-17.6,55.4*,-3.9,i,6.5
CCCCOc1cccc(C2C(C(=O)c3ccc(C)o3)=C(O)C(=O)N2c2nnc(C)s2)c1 (stereo not drawn),-48.2,4.4,12.5,-17.4,-5.3,15.0,i,/
CCC(C)NC(=O)CSc1nc(-c2cccs2)cc(C(F)(F)F)n1 (stereo not drawn),0.6,-1.9,3.0,-22.1,/,-9.5,i,-3.1
COc1cccc(CN2CCNC(=O)C2CC(=O)N(C)CCC2CCOCC2)c1OC (stereo not drawn),-4.9,1.5,-7.5,2.5,-5.8,3.6,i,18.3
CC(C)NC(=O)Nc1ccc2c(c1)C(=O)N([C@H](C)CO)C[C@H](C)[C@@H](CN(C)S(=O)(=O)c1ccc(F)cc1)O2,-2.1,-0.9,/,5.9&-27.9,-29.5,/,/,/
Cc1ccc(S(=O)(=O)c2cc3cc(Br)ccc3oc2=O)cc1,-11.8,-9.6,-4.9,-5.3,/,9.9,i,15.1
CCC(=O)N1CCc2cc(S(=O)(=O)CCC(=O)Nc3ccc(F)c(F)c3)ccc21,0.9,-0.1,1.7,-22.0,-4.2,4.8,i,-11.7
CCC(c1nc2ccccc2c(=O)n1CCCn1ccnc1)N1C(=O)c2ccccc2C1=O (stereo not drawn),-2.7,-2.7,-13.1,-9.9,-0.2,-4.9,i,-11.6
CC(=O)c1c(C)nc2ccc(Cl)cn12,4.8,-1.6,-5.3,-17.0,-22.0,5.1,i,-5.1
O=C(NCc1ccccc1)c1ccc(=O)[nH]n1,1.3,1.0,-7.1,-11.2,/,-5.6,i,-15.9
CCc1ccc(NC(=O)Nc2cccc(OC)c2)cc1,6.4,1.5,-3.9,-17.4,-59.1,-9.5,i,/
O=C(NCC1CCCN1S(=O)(=O)c1cccs1)c1ccccc1F (stereo not drawn),3.0,4.4,/,-13.7,/,/,i,-5.1
Cc1ccnc(NC(=O)COC(=O)C2COc3ccccc3O2)n1 (stereo not drawn),-0.7,1.1,1.8,-9.2,-24.3,9.4,i,1.8
CC[C@@H]1C=C(C(=O)O)[C@H](c2ccc3c(c2)OCO3)N1S(=O)(=O)c1ccc(C)cc1,-2.3,3.8,/,6.1,-5.3,/,/,/
Cc1c(CN2CC[C@@H](N3CCN(c4ccccn4)CC3)[C@H](O)C2)[nH]c2ccc(F)cc12,2.7,-2.4,-5.3,21.2,2.9,0.1,i,0.3

New compounds follow:
compound,MT1-MMP act inh,MT1-MMP act inh RFP,eIF4H inh,Yeast UUG start,HIV Env fusion,PABP FP inh,Rce1 inh,CSC inhib
COc1cc(/C=N/Nc2ccc(Cl)c(C(=O)O)c2)ccc1OC(=O)c1ccc(F)cc1,-0.1,-4.4,3.0,11.6,5.3,15.8,i,-11.7
CS(=O)(=O)N1CCC(Oc2ccccc2C(=O)NC2CCCCCC2)CC1,-0.1,3.4,-3.7,/,-12.1,-10.5,i,-2.6
COc1ccccc1CNC(=S)Nc1ccc(S(N)(=O)=O)cc1,-0.8,4.4,-6.3,-9.2,/,-3.0,i,-4.1
O=C(CCc1ccccc1)Nc1cc(NC(=O)CCc2ccccc2)cc(C(=O)O)c1,1.9,5.2,5.9,/,-4.9,1.2,i,-3.7
Cc1cc(C)cc(NC(=O)C2CCN(C(=O)c3cccs3)CC2)c1,-1.0,-1.3,35.1,-1.7,-4.0,4.4,/,2.4
